hNpr1 antagonist = Natriuretic polypeptide receptor (hNpr1) antagonism - Primary qHTS; HEK293 hNpr1 GloSensor cGMP, ANP-stimulated luminescence; 76,000 tested, 1.6% active; Potency, µM (doses to about 46.3 µM), for inactives: top-dose activity change, negative = inhibition, most hits filed as inhibitors; Atrial natriuretic peptide receptor 1 (Homo sapiens), P16066; active = well fitted inhibition curve with a large enough effect; inconclusive = small, poorly fitted or top-dose-only effect; inactive = no such curve, though single readings can be large or run the other way;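 also: nearly all actives have a fitted effect of over 60% in size; nearly all hits also lower the signal before the agonist is added; a reference antagonist and vehicle were the controls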
Target sequence (P16066 whole entry, looked up): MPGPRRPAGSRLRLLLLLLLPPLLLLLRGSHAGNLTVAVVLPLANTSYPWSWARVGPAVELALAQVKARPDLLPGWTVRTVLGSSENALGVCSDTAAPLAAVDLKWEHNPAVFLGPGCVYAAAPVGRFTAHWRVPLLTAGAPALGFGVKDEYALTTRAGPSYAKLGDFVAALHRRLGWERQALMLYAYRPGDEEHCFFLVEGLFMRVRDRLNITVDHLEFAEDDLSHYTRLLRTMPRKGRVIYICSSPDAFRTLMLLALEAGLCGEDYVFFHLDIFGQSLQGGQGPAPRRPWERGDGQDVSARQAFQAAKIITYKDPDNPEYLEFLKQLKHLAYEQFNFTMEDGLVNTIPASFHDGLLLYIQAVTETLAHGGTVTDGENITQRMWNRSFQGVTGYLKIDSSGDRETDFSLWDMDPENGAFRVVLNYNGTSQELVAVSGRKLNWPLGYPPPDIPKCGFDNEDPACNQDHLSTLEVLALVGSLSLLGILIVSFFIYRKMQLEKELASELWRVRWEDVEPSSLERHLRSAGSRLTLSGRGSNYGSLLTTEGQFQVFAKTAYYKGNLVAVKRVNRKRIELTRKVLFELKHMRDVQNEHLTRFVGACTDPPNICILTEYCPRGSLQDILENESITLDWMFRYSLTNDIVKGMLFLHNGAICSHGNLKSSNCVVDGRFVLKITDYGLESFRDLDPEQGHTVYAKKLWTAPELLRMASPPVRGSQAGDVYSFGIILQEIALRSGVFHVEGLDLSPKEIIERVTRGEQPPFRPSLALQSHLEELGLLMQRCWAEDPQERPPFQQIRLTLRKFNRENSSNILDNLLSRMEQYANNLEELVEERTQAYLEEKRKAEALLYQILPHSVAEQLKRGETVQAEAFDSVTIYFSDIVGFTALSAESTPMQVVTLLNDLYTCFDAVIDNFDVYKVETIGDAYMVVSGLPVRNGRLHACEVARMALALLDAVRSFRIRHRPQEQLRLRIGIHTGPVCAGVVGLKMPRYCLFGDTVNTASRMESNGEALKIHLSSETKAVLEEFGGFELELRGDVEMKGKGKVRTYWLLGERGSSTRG
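HEK293 cells stably expressing human Npr1 and cGMP GloSensor pGS-40F, loaded 2 h with 2% GloSensor reagent, given compound 30 min at room temperature. Luminescence read before and 20 min after 0.1 nM hNppA.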
Numbers without * were called inactive; u = inconclusive; [ ] = dose if it differs, or a comment. % is scaled to controls: 0 for no effect and ±100 for the full control effect; potency is read from the fitted curve at half-maximal effect. Only part of the results is shown, so the mix of outcomes need not match the whole.

hNpr1 antagonist | SMILES
0% | Cc1cc(F)ccc1NC(=O)CCC1CCCN(Cc2cn[nH]c2-c2cccc(F)c2)C1 (stereo not drawn)
2% | O=C(CN1C(=O)NC2(CCOCC2)C1=O)Nc1cc(F)cc(F)c1
-23% | COc1ccc(CN2Cc3cc(NC(=O)c4ccc5c(c4)OCO5)ccc3OC(C)C2=O)cc1 (stereo not drawn)
-1% | O=C(Nc1cccc(Cl)c1)N1CCCCC1c1noc(COCC2CC2)n1 (stereo not drawn)
1% | COCCN(C)C[C@H]1C[C@H](CO)CN(C(=O)c2ccc(SC)cc2)C1
-14% | CCOc1ccccc1CN1CCCN(S(C)(=O)=O)C(c2ccccc2)CC(=O)NCC1 (stereo not drawn)
0% | Cc1noc(-c2cn(C3CCN(C(=O)c4ccc[nH]4)CC3)nn2)n1
-17% | Cc1cccc(C(=O)N2CCCC(c3noc(-c4cc5c(=O)[nH]c(C)cn5n4)n3)C2)c1 (stereo not drawn)
0% | CN(C)c1ccc(C(=O)N2CCN(C(=O)c3ccc(N(C)C)cc3)[C@H](C(=O)N[C@H](Cc3c[nH]c4ccccc34)C(N)=O)C2)cc1
7% | COc1ccc(-c2nc3c(c(=O)[nH]2)CCN(C(=O)c2ccccc2)C3)cc1
-7% | O=C1CCN(C(=O)CC2CCCC2)CCCC(c2nc(-c3cccnc3)no2)CCN1 (stereo not drawn)
u | O=C(CC1CCCCC1)NC1CCN(c2cnn(CC3CC3)c(=O)c2)CC1
-1% | CCc1cc(=O)n(CC(=O)Nc2cccc(Cl)c2C)c(N2CCOCC2)n1
3% | CSc1cccc(CN(C)C(=O)CC2COCCN2)c1 (stereo not drawn)
-3% | COc1cccc(CN2CCCC(O)(CNC3CCCCCCC3)C2=O)c1 (stereo not drawn)

hNpr1 antagonist | SMILES
-8% | Cc1sc2ccn(C)c(=O)c2c1C(=O)NCc1ccccc1Cl
6% | CC(C)NC(=O)Cn1ccn2nc3c(c2c1=O)CCCC3
-2% | COc1ccc(C(=O)NCc2nnc3ccc(-c4ccc(Cl)cc4)nn23)c(C)c1
-2% | CNC(=O)[C@@H]1C[C@H](n2cc(CNC(=O)Nc3cccc(Cl)c3C)nn2)CN1
-6% | COc1ccc(N2C(=O)C3(CCCCC3)C2C(=O)NCCN2CCc3ccccc3C2)cc1 (stereo not drawn)
-6% | CCOc1ccccc1C(=O)N1CCC2(CC1)NC(=O)N(c1cccc(Cl)c1)N2
-1% | O=C([C@H]1C[C@@H](F)CN1C(=O)c1ccc(C(F)(F)F)cc1)N1CCOCC1
0%[70.6 µM] | O=C1CC2CCCC(C1)N2C(=O)c1cccc(Br)c1
-2% | COCc1ccc2c(c1)c(OC(C)(C)C(=O)NC1CCC(O)CC1)nn2Cc1ccccc1 (stereo not drawn)
u | CN(C)c1ccc(C(=O)N2CCCN(c3cc(-c4ccc(Cl)cc4)[nH]n3)CC2)cc1
-9% | COc1ccc(NC(=O)[C@@H]2COCC(=O)N2Cc2ccc(OC)c(OC)c2)cc1Cl
0% | Cc1ncsc1CN1C(=O)CO[C@H](c2ccc(NC(=O)c3ccc(F)cc3)cc2)[C@H]1CO
5% | CCC(=O)N1C(C(=O)NC(C)C)COC12CCC(C)CC2 (stereo not drawn)
-2% | CCN1c2cc(C(=O)Nc3ccc(OC)cc3)ccc2C(=O)N2CCCCC21 (stereo not drawn)
-1%[70.6 µM] | COCCN1CCOC2(CCN(Cc3ccc(F)cc3F)CC2)C1=O

Reformatted: entries from further up
> CCN1c2cc(C(=O)Nc3ccc(OC)cc3)ccc2C(=O)N2CCCCC21 (stereo not drawn)
  hNpr1 antagonist = -2%
> COCCN1CCOC2(CCN(Cc3ccc(F)cc3F)CC2)C1=O
  hNpr1 antagonist = -1%[70.6 µM]

Next compounds follow:
hNpr1 antagonist | SMILES
-1%[70.6 µM] | NC(=O)Cn1ccc2cc(OCC3CCN(C(=O)C4CC4)CC3)cnc21
1% | CCC(C)C(=O)Nc1c(C(=O)OC)n(CC2CCCO2)c2ncc(NC(C)CO)cc12 (stereo not drawn)
-1% | CN(C)c1cc(N2CCCC(NC(=O)c3cccn3C)C2)ncn1 (stereo not drawn)
4% | Cc1nc(N2CCC(NC(=O)Cc3ccsc3)CC2)cc(C(F)(F)F)n1
0% | Cc1ccsc1C(=O)N1CCC(n2nccc2NC(=O)c2cccc(F)c2)CC1
0% | Cc1nc2ccccc2nc1CN1CCC2(CCC(=O)N(CCO)C2)CC1
4%[70.6 µM] | CN1C[C@@H](NC(=O)CC(C)(C)CC(=O)O)C[C@H]1c1nc(-c2ccc3c(c2)OCO3)no1
-1% | O=C(NC1CCCC1)N[C@@H]1C[C@H](Cn2cc(-c3cccnc3)nn2)[C@@H](O)[C@H]1O
-1% | CCCCOC(=O)N1CCC(N2CCCC(C(=O)N3CCOCC3)C2)CC1 (stereo not drawn)
2% | Cc1nn(C)c(C)c1NC(=O)CC[C@H]1NC(=O)c2ccccc2NC1=O
1% | O=C1COCC2(CN1Cc1cccc(OC(F)(F)F)c1)CN(C(=O)Cc1cccnc1)C2
-2% | Cc1cccc(OCC(=O)N2CCC3(CC2)NC(=O)N(c2ccc(F)cc2)N3)c1
0% | CC(C)N1CCCC2(CCN(S(=O)(=O)c3cccc(F)c3)C2)C1=O (stereo not drawn)
6%[70.6 µM] | COC(=O)[C@@H]1Cc2nc[nH]c2CN1C1CCOCC1
3% | COCCNC(=O)[C@H]1C[C@H](Oc2ccccc2)CN1Cc1ccc(OC(F)(F)F)cc1

Some of these compounds in order of their number in hNpr1 antagonist, rising:
hNpr1 antagonist | SMILES
-17% | Cc1cccc(C(=O)N2CCCC(c3noc(-c4cc5c(=O)[nH]c(C)cn5n4)n3)C2)c1 (stereo not drawn)
-14% | CCOc1ccccc1CN1CCCN(S(C)(=O)=O)C(c2ccccc2)CC(=O)NCC1 (stereo not drawn)
-2% | CNC(=O)[C@@H]1C[C@H](n2cc(CNC(=O)Nc3cccc(Cl)c3C)nn2)CN1
0% | CC(C)N1CCCC2(CCN(S(=O)(=O)c3cccc(F)c3)C2)C1=O (stereo not drawn)
1% | O=C1COCC2(CN1Cc1cccc(OC(F)(F)F)c1)CN(C(=O)Cc1cccnc1)C2
2% | O=C(CN1C(=O)NC2(CCOCC2)C1=O)Nc1cc(F)cc(F)c1
5% | CCC(=O)N1C(C(=O)NC(C)C)COC12CCC(C)CC2 (stereo not drawn)

(listing goes on)
hNpr1 antagonist | SMILES
-5% | COc1cc(NC(=O)C2CCN(C(=O)c3ncn4c3COC(c3ccccc3)C4)CC2)cc(OC)c1 (stereo not drawn)
4% | Cc1ccc(CN2CCc3nc(N(C)Cc4cccnc4)[nH]c(=O)c3CC2)s1
0% | Cc1cn2nc(C(=O)N3CCC(NC(=O)c4cccc(Cl)c4)CC3)cc2c(=O)[nH]1
-18% | Cc1ccc([S+](=O)([O-])N2CCC3(CC2)C(=O)NCN3Cc2ccc(Cl)cc2)cc1
-22% | O=C1CCCCC(CNC(=O)c2ccccc2F)N1 (stereo not drawn)
1%[70.6 µM] | COc1cccc(NC(=O)N[C@H]2[C@H](O)[C@@H](N3CCCCC3)[C@@H]3OC[C@H]2O3)c1
2%[70.6 µM] | F[C@@H]1CN(Cc2cccnc2)C[C@@H]1OCc1nc2ccccc2[nH]1
3% | CN(C)C(=O)c1ccc(OC2CCN(C(=O)c3ccco3)CC2)nc1
-3%[70.6 µM] | CC(=O)Nc1ccc(CN2CC(Oc3ccc(F)c(C)c3)C2)cc1
3% | COc1ccc(CCC(=O)N2CCC([C@@H]3CNC[C@H]3CO)CC2)cc1
u | COc1ccc2[nH]c(C[C@@H]3C[C@@H](C(C)C)[C@H](CNC(=O)C4CCC4)C=C3C)nc2n1
-4% | Cc1nccn1-c1ccc(CNC(=O)C(c2ccccc2F)N(C)C)cc1 (stereo not drawn)
3% | Cc1cc(C(=O)N2C[C@@H](Oc3ccccc3)C[C@@H]2C(=O)N2CCOCC2)nn1C
3% | CCn1ccnc1C1CCN(C(=O)c2cccc(N3CCNC3=O)c2)CC1
3%[70.6 µM] | COc1ccc(-c2cc3c(nc2OC)nc(CC2CC2)n3C)cc1

hNpr1 antagonist | SMILES
-7%[70.6 µM] | Cc1cc(OCCN(C)C)c(C)c2c1CC[C@@H]([C@H](C)C(=O)NCc1ccccc1)C2
6%[70.6 µM] | Cn1nccc1CN1CCC2(CC1)NC(=O)c1ccccc1O2
u | CCC(C)(C)NC(=O)c1cccc2c1CCN2C(=O)Nc1ccc(C)cc1
1% | O=S(=O)(c1ccc(F)cc1)N1CCCC(Cc2noc(C3CC3)n2)C1 (stereo not drawn)
-4% | CCN1c2cc(C(=O)Nc3ccc(C(F)(F)F)cc3)ccc2C(=O)N2CCCCC21 (stereo not drawn)
-12% | CC(C)N1C[C@H](O)C[C@H]1c1nnc2n1CCN(C(=O)c1ccsc1)CC2
0%[70.6 µM] | C[C@H]1[C@@H]2[C@H]3OC(=O)[C@@H](C)[C@@H]3CC[C@@]2(C)CC[C@@H]1NC(=O)COc1ccccc1
-8% | Cc1ccccc1NC(=O)C1CCc2nc(N3CCN(C(=O)C(C)C)CC3)sc2C1 (stereo not drawn)
-2%[70.6 µM] | CN1CCN(C(=O)C2CCCN(c3nc4ncccc4o3)C2)CC1 (stereo not drawn)
-4%[70.6 µM] | COc1ccc(S(=O)(=O)N2CC[C@H]3NC(=O)N(c4ccc(C(C)C)cc4)C(=O)[C@H]32)cc1
-2% | CC1(c2noc(-c3cccnc3)n2)CCN(C(=O)CCC(=O)N2CC(=O)Nc3ccccc32)CC1
0% | CN1CC2(CCCN(Cc3cc(F)ccc3-n3cccn3)C2)OC1=O (stereo not drawn)
0% | O=C(NC1CCN(c2cn[nH]c(=O)c2)CC1)C1CCCCC1
4% | COc1cccc(C(=O)NCC2Cn3cccc3C(=O)N2C)c1 (stereo not drawn)
4% | COC(C)(C)C(=O)N1CCN(c2nc(-c3ccccc3)nc3c2CCC3)CC1

hNpr1 antagonist | SMILES
11% | COCCCNC(=O)CCc1ccc2c(c1)CN(S(C)(=O)=O)CCO2
7.9µM* | CCc1ccc(NC(=O)C2CCN(c3cc(C(F)(F)F)ncn3)CC2)cc1
4% | O=C(CCC1CCCCC1)NC1CCN(c2cn[nH]c(=O)c2)CC1
2%[70.6 µM] | O=C(c1ccc2nccn2c1)N1CCCCC1
2% | Cc1cnc(C)c(-c2cc(O)c3c(c2)CN(CCCn2cnnn2)CCO3)n1
4% | CNC(=O)[C@@H]1C[C@@H](n2cc(CN(C)C(=O)Nc3ccc(F)cc3)nn2)CN1
-22% | COc1cc(SC)ccc1C(=O)N[C@H]1CCN2C(=O)N(c3ccc(Cl)cc3)C(=O)[C@@H]2C1
-2% | O=C(CN1CCCC1=O)N1CCC(N2CC(OCC3CC3)C23CCCCC3)CC1 (stereo not drawn)
-1% | CCC(C)NC(=O)C(NC(=O)c1ccccc1C)C1CCN(C(=O)c2ccc(Cl)cc2)CC1 (stereo not drawn)
0%[70.6 µM] | O=C(C[C@@H]1CCNC[C@@H]1Cc1cc(CC2CCCCC2)on1)NCc1cccnc1
-1% | O=C(NCc1cccc(Cl)c1)c1ccc(N2CC3CC(C2)[C@H]2CCCC(=O)N2C3)nc1 (stereo partly drawn)
2%[70.6 µM] | COc1ccc(CN2CCC[C@H]2c2nc(-c3cncnc3N)no2)cc1
-4% | O=C(CCCc1ccccc1)Nc1cccc(-c2nnc3n2CCCC3)c1
1% | COCCOC1CCOC2(CCN(C(=O)c3ccsc3)CC2)C1 (stereo not drawn)
-24%[70.6 µM] | N#Cc1cccc(CN2CCc3nc(C(=O)NCC4CC4)oc3CC2)c1

hNpr1 antagonist | SMILES
-2% | CCCCNC(=O)Cc1csc2nc(C)c(-c3cc(C)n(-c4cc(F)ccc4C)n3)c(=O)n12
32µM* | Cc1ccccc1-c1cnc2[nH]cc(CC(=O)NCc3cccnc3)c2c1
-18% | O=C(c1ccc(F)c(F)c1)N1CCCC(n2cc(-c3nc(C4CC4)no3)nn2)C1 (stereo not drawn)
4% | O=C(Cn1cccc1-c1nc(-c2ccc(F)cc2)no1)Nc1ccccc1
0%[70.6 µM] | O=C1NC[C@H]2O[C@H](Cc3cc(COc4ccccc4)on3)CC[C@@H]2O1
4% | Cc1[nH]nc(CCC(=O)N2CC[C@@H](NC(=O)c3cnccn3)[C@H](O)C2)c1C
0%[70.6 µM] | O=S(=O)(NC[C@H]1OC[C@@H](NCc2ncc[nH]2)[C@@H]1O)c1ccccc1
u | Cc1ccc(-c2ccc3c(n2)CN(C)C(=O)CO3)cc1
1% | COc1c(F)cccc1C(=O)N1CCC(Cc2ccc(C(=O)O)cc2)C1 (stereo not drawn)
-2% | CCCC1(CO)CCCN(Cc2cnc(-c3ccccn3)nc2)C1 (stereo not drawn)
2% | O=C(CCC[C@@H]1[C@H]2CCCN3CCC[C@@H](CN1C(=O)c1ccccc1)[C@@H]23)NCc1ccccc1
-12% | Cc1ccc([S+](=O)([O-])N2CCn3c(nn(-c4ccc(F)cc4)c3=O)C2)cc1
6%[70.6 µM] | CCCc1nnc(C[C@@H]2C[C@@H](C(C)C)[C@H](CN3CCC[C@H]3CO)C=C2C)o1
u | Cc1ccc(C2NC(=O)N(CC(=O)Nc3ccc(Br)c(C)c3)C3=C2C(=O)OC3)cc1 (stereo not drawn)
9% | COCc1nc(C2CC(N)C2)cc(N2CC(c3nccs3)C2)n1 (stereo not drawn)
1% | Cn1nnnc1C1CCCN(C(=O)CCCc2ccccc2)C1 (stereo not drawn)
-7% | Cc1cnc(C2CC2)n1C1CCCN(Cc2ccccc2)C1 (stereo not drawn)
32µM* | CCNC(=O)N[C@@H]1C=C[C@@H](c2c(C)nn(-c3ccc(C(C)(C)C)cc3)c2C)C1
